# Bfl-1 A1 inh = inhibitors of the anti-apoptotic protein A1, read as caspase activation; MEF A1-2A-BIM cells, Caspase-Glo 3/7 luminescence, 3 h; percent of clofoctol response, vehicle zero; caspase activation, % (no concentration beside the values); actives 0.066% (n = 330,000); AID 2462;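 active = over half of replicate activation scores above 10%, or exactly half above 10 with the replicate mean above 10; inconclusive = replicate mean below 10 yet half the replicates above 10; inactive = over half of replicates below 10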;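 also: wells of about 30 µL received 50 nL stock; many hits fall short of the cut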
# RanGTP-Imp inh = inhibitors of RanGTP-importin-beta interaction, primary screen, biochemical, FRET, CFP-Ran, YFP-importin-beta, homogeneous. inhibition, % (test concentration not listed). cell-free CFP-Ran/YFP-importin-beta FRET ratio. actives 1.1% (n = 300,000);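 active = most replicates above 15%; inconclusive = exactly half above 15%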;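 also: 0% = DMSO wells and 100% = Ran loaded with GDP instead of GTP; wells of about 40 µL received 100 nL stock; the first replicate is given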
# MLL AF4-AF9 inh = MLL-AF4/AF9 protein interaction inhibition | actives 0.47% (n = 350,000) | inhibition, % at 10 µM | AlphaScreen, biotin-AF4 peptide binding to FLAG-AF9 | AID 651704 | P42568;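 active = every replicate reaching a set inhibition limit, whatever the replicate mean, cut at about 25% in these data; inconclusive = mean inhibition reaches that limit but some replicates miss it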;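 also: 0% = plate neutral control median and 100% = total signal loss; the record names both 10 and 1 µM as test concentration; the first replicate is given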
# Target sequence (P42568 whole entry, looked up): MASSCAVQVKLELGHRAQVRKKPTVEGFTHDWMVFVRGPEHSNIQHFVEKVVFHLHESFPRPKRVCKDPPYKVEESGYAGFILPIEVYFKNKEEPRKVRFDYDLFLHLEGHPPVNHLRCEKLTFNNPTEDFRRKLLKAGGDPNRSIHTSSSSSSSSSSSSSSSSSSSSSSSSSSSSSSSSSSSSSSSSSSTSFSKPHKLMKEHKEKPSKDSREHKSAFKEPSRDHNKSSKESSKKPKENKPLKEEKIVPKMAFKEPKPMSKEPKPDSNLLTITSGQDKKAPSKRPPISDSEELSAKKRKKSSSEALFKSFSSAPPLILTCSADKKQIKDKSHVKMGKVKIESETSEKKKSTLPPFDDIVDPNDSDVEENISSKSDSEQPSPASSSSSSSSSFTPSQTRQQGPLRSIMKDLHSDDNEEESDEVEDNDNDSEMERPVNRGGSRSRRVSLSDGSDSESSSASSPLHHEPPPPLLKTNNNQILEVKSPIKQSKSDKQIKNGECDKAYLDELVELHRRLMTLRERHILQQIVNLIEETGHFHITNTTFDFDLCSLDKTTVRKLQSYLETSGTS
# Vif TR-FRET = inhibitors of Vif binding to APOBEC3G peptide, primary screen, biochemical, TR-FRET, GST-Vif 1-94, biotin-A3G peptide, dose response retest (AID 1117319) | TR-FRET GST-Vif / biotin-A3G peptide binding; higher % means a stronger effect; test concentration not given here; strong numbers were not always called active | inhibition, %, or IC50 in µM where a hit was titrated | actives 0.57% (n = 260,000);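 active = above the screen mean plus three standard deviations and confirmed in dose response; inconclusive = results disagree or hit not tested in dose response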;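 also: Vif residues 1-94 fused to GST binding biotinylated APOBEC3G peptide 110-148; 0% = full assay without inhibitor and 100% = GST in place of GST-Vif; retest series ran down from 100 µM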
# Ecoli rRNA inh = selective bacterial rRNA inhibition in E. coli. E. coli WT GFP vs humanized-ribosome RFP mutants, fluorescence, 24 h; active compounds read low; DMSO median 0, no signal -100. GFP signal change (wild-type ribosome), % (test concentration not listed). actives 1.6% (n = 350,000). AID 720706;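 active = significant combined selectivity score with lowered wild-type GFP, culture density cut under 30%, mutant RFP and density less affected; inactive = any of these conditions unmet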; also: one replicate is shown; some compounds called inactive have numbers as strong as hits
# Beta cell apopt = blocks beta cell apoptosis; INS-1E cytokine-induced death, ATP luminescence, 48 h; percent of positive-control rescue, neutral wells zero; protection from apoptosis, % (concentration not given with the values); actives 0.8% (n = 300,000); AID 435005;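 active = all replicates at 75% or more, or half of them and the mean; inconclusive = half reach 75% but not the mean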;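 also: 0% = cytokine-treated negative control wells and 100% = positive control rescue; higher means more ATP so stronger rescue from cytokine killing; wells of about 40 µL received 100 nL stock; the first replicate is given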
# Calb FLC = C. albicans growth modulation with fluconazole. C. albicans CaCi-2 (fluconazole-resistant clinical isolate) + fluconazole, Alamar Blue growth, 48 h. growth inhibition, % (test concentration not listed). actives 0.57% (n = 300,000). AID 1979;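 active = most replicates above 75%; inconclusive = exactly half above 75%; inactive = most below 75%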;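 also: all wells also contain fluconazole at 8 µg/ml as a sub-toxic cotreatment; 0% = median of DMSO wells and 100% = median of geldanamycin control wells; wells of about 8 µL received 7.5 nL stock; the first replicate is given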
# T cruzi repl = T. cruzi replication inhibition; T. cruzi beta-gal in NIH3T3, luminescence, 90 h; inhibition, % (no concentration beside the values); actives 1.4% (n = 300,000);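 active = mean inhibition across valid replicates above about 55%, limit read from the data; inconclusive = mean below that limit but half or more replicates reach it; inactive = mean below it, under half of replicates reach it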;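 also: signal also drops with host cell toxicity which is not excluded here; 0% = plate median of DMSO wells and 100% = zero luminescence signal; higher percent means less beta-gal luminescence so fewer parasites; stock transfer was 50 nL into about 50 µL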
# Ecoli rRNA inh OD600 = recorded beside Ecoli rRNA inh, whose call it bears; OD600 change, %; measured here: OD600 growth;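 optical density of the mix in the first replicate; 0 = DMSO median and -100 = no signal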
# Ecoli rRNA inh RFP = also measured in Ecoli rRNA inh; calls as there; RFP signal change, %; measured here: RFP humanized mutant strains;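 first replicate; 0 = DMSO median and -100 = no signal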
# Numbers without * were called inactive; ? = inconclusive; . = no result given. Some of the compounds tested (hit frequency here may not be typical).
# Letter code – A = Bfl-1 A1 inh; B = RanGTP-Imp inh; C = MLL AF4-AF9 inh; D = Vif TR-FRET; E = Ecoli rRNA inh; F = Ecoli rRNA inh OD600; G = Ecoli rRNA inh RFP; H = Beta cell apopt; I = Calb FLC; J = T cruzi repl
> Cc1ccc(S(=O)(=O)N2CCCCC2C(=O)Nc2ccc(N(C)C)cc2)cc1 (centres undefined)
  A: 0.3	B: .	C: 12	D: 4%	E: -4	F: -10	G: 2.5	H: -5	I: .	J: .

> CCOC(=O)c1c(C)[nH]c(C)c1S(=O)(=O)N(C)CC(=O)Nc1cc(C)ccc1OC
  A: 0.2	B: 0.3	C: 2.1	D: .	E: -3	F: 2	G: 3.2	H: -1	I: 20	J: 9

> CC(OC(=O)CCSc1ccccc1)C(=O)Nc1ccc(S(N)(=O)=O)cc1 (centres undefined)
  A: 0.5	B: -0.5	C: -1.0	D: 1%	E: 3	F: 5	G: -1.7	H: 0	I: 0	J: 1

> CCCCOc1ccc(C(=O)NCC(=O)NCc2ccccn2)cc1
  A: -0.2	B: -3.0	C: -3.0	D: 16%	E: 7	F: 9	G: 1.2	H: -6	I: -2	J: -12

> CCOCCCn1c(=O)c(NC(=O)c2ccc(OCC)cc2)c2n(c1=S)CCCCC2
  A: -0.6	B: -0.4	C: .	D: 26%	E: .	F: .	G: .	H: 2	I: 7	J: 16

> Cc1cnc(C(=O)NC2CC(C)(C)Cc3c2cnn3-c2ccccc2)cn1 (centres undefined)
  A: -0.2	B: 3.4	C: 2.9	D: .	E: -1	F: 2	G: 0.8	H: 2	I: 3	J: -11

> CCn1nc(C)c(CN2CCC(C(=O)Nc3cccc(-c4cccc(Cl)c4)c3)CC2)c1C
  A: 0.1	B: 1.7	C: 13	D: .	E: -60	F: -79	G: -19	H: 5	I: -4	J: -8

> CCN1CCCC1CNC(=O)CS(=O)(=O)Cc1nc(-c2ccccc2C)oc1C (centres undefined)
  A: 0.4	B: 2.6	C: 0.2	D: 2%	E: 5	F: 3	G: -0.6	H: -8	I: -2	J: -7

> COc1ccccc1NC(=O)COc1ccc(Br)cc1CO
  A: -0.6	B: -0.4	C: .	D: 20%	E: .	F: .	G: .	H: -1	I: -4	J: 6

> CCOC(=O)c1ccc(NC(=S)Nc2cccc(C)n2)cc1
  A: -0.3	B: -1.4	C: .	D: 0%	E: .	F: .	G: .	H: 7	I: -17	J: -7

> O=C(NCc1ccccc1)c1ccc(Cl)cc1
  A: -1.1	B: -2.2	C: -1.4	D: .	E: 9	F: 5	G: 4.3	H: -1	I: -4	J: -12

> O=C(Cn1c(C(F)(F)F)nc2ccccc21)OCC(=O)c1c[nH]c2ccccc12
  A: -0.3	B: 3.6	C: .	D: 2%	E: .	F: .	G: .	H: -13	I: -4	J: -24

> CC(Sc1nnc(-c2ccco2)n1C)C(=O)N1C(C)CCCC1C (centres undefined)
  A: 1.1	B: 2.0	C: -6.1	D: .	E: 3	F: 8	G: 0.9	H: -3	I: 1	J: -8

> CCNC(=O)N1c2ccc(OC)cc2C(C)=CC1(C)C
  A: -1.0	B: -1.3	C: .	D: 18%	E: .	F: .	G: .	H: -14	I: 29	J: 36

> O=C(NC1CCCC1)C(c1ccco1)N(C(=O)c1csnn1)c1ccccc1 (centres undefined)
  A: 0.0	B: -2.2	C: 0.3	D: -9%	E: .	F: .	G: .	H: -6	I: -8	J: 5

> CSc1ccc(/C=N/NC(=O)CN2CCN(Cc3ccccc3)CC2)cc1
  A: 0.0	B: -0.5	C: -6.2	D: 12%	E: 9	F: 8	G: -3.5	H: -4	I: -5	J: -6

> COc1cccc(NC(=S)N(CCCN2CCCC(C)C2)Cc2cccs2)c1 (centres undefined)
  A: 0.3	B: 2.5	C: 3.5	D: -5%	E: 12	F: 5	G: 2.2	H: -2	I: -40	J: -12

> O=C(NCc1cccnc1)c1cccc(S(=O)(=O)N2CCCCC2)c1
  A: -0.3	B: -4.2	C: .	D: -1%	E: .	F: .	G: .	H: -3	I: 21	J: -7

> O=C(O)C1=C[C@@H](c2ccc(C(F)(F)F)cc2)C[C@@H](OCCCCO)O1
  A: 0.0	B: -2.6	C: 0.3	D: .	E: 12	F: 14	G: 11	H: -7	I: -7	J: -15

> O=C(CN1CCOCC1)Nc1ncc(Cc2cccc(Cl)c2Cl)s1
  A: 0.2	B: .	C: 3.6	D: ?	E: -18	F: -21	G: -8.0	H: 0	I: .	J: -16

> c1ccc(-c2noc(CCC3CCCC3)n2)cc1
  A: -0.9	B: 0.8	C: -0.8	D: -2%	E: -5	F: -10	G: -1.8	H: -9	I: 3	J: -7

> COc1cccc(N=C(N)N=C(N)N)c1
  A: 0.7	B: 5.8	C: 0.0	D: -13%	E: 28	F: 13	G: 3.8	H: -6	I: -4	J: -27

> CN(C)c1ccc(C2Nc3ccccc3C(=O)N2CCCN2CCOCC2)cc1 (centres undefined)
  A: -1.3	B: 0.7	C: 2.5	D: .	E: 8	F: 7	G: -1.3	H: 1	I: -8	J: -2

> Cc1ccccc1-c1nc(CS(=O)(=O)CC(=O)NCCCN2C(C)CCCC2C)c(C)o1 (centres undefined)
  A: -0.1	B: 1.3	C: -2.3	D: -1%	E: .	F: .	G: .	H: -9	I: 0	J: -5

> Nc1c(NCCN2CCOCC2)c2ccccc2oc1=O
  A: -0.1	B: ?	C: .	D: 5%	E: .	F: .	G: .	H: -5	I: 7	J: -1

> Cc1ccc(OCC(=O)NNC(=O)c2ccc(NC(=O)C3CC3)cc2)c(C)c1
  A: -0.4	B: 0.6	C: -6.0	D: -7%	E: -4	F: -9	G: 1.0	H: 5	I: -3	J: -2

> CCCCn1c(Cc2ccccc2)nnc1SCC(=O)N1CCOCC1
  A: -0.5	B: 1.0	C: .	D: -6%	E: .	F: .	G: .	H: -5	I: -4	J: -13

> CCOC(=O)CC1C(=O)NCCN1C(=O)c1c(Cl)cccc1Cl (centres undefined)
  A: 0.0	B: 7.9	C: 0.4	D: -6%	E: 21	F: 17	G: -2.0	H: .	I: 92*	J: -4

> COc1ccccc1/C=C1\SC(=S)N(CCC(=O)NNC(=O)c2ccccc2OC)C1=O
  A: 2.2	B: 3.8	C: -1.9	D: .	E: 7	F: 5	G: 0.3	H: 1	I: 12	J: 32

> Cc1ccc(C(=O)CNc2ccc(Cl)cc2)cc1
  A: 0.6	B: 2.7	C: -0.4	D: -8%	E: -8	F: 3	G: -4.8	H: 0	I: -8	J: -45

> Cc1ccccc1OCc1nc2ccccc2c(=O)n1NC(=O)c1ccco1
  A: -0.8	B: 1.1	C: .	D: 14%	E: .	F: .	G: .	H: .	I: 2	J: 7

> O=C(/C=C/c1ccc(Cl)cc1)NC1CCS(=O)(=O)C1 (centres undefined)
  A: 0.3	B: -2.5	C: 0.6	D: -4%	E: 5	F: 7	G: 1.0	H: -5	I: -8	J: 13

> CC1CC1C(=O)N(C)CC(=O)Nc1ccccc1Br (centres undefined)
  A: 0.5	B: .	C: -1.3	D: .	E: 8	F: 13	G: 1.7	H: -9	I: .	J: .

> COc1cccc(C2=NO[C@@H]3C(=O)N(c4ccc5c(c4)OCCO5)C(=O)[C@H]23)c1OC
  A: 0.0	B: -6.1	C: .	D: 9%	E: .	F: .	G: .	H: -10	I: 17	J: 3

> Cc1cc(C(=O)NNc2ccccc2F)no1
  A: 0.8	B: 6.2	C: 0.0	D: -2%	E: 9	F: 7	G: -0.2	H: 3	I: -1	J: 61*

> O=C(NN1C(=O)/C(=C\c2cccnc2)SC1=S)C(c1ccccc1)c1ccccc1
  A: 0.1	B: 0.9	C: 4.0	D: 3%	E: .	F: .	G: .	H: 4	I: 57	J: -1

> CCN1C(=O)/C(=C/C=C2/Sc3ccc4ccccc4c3N2CCO)SC1=S
  A: 0.2	B: -13	C: -11	D: 30%	E: 12	F: 0	G: 23	H: 9	I: -3	J: -4

> CS(=O)(=O)Nc1cccc(C(=O)CC2(O)C(=O)Nc3ccccc32)c1 (centres undefined)
  A: -0.1	B: 0.2	C: .	D: -1%	E: .	F: .	G: .	H: -9	I: -63	J: -8

> Cc1nnc(NC(=O)CSCc2c(C)noc2C)s1
  A: -0.4	B: .	C: -1.3	D: -2%	E: 3	F: 3	G: -3.2	H: 2	I: 3	J: -4

> O=CN1CCN(S(=O)(=O)c2ccc(S(=O)(=O)NC3CCCCC3)cc2)CC1
  A: -0.5	B: ?	C: 0.2	D: .	E: .	F: .	G: .	H: .	I: -7	J: 5

> COc1cccc(NC(=O)c2ccc(CN3CCc4ccccc4C3)cc2)c1
  A: -11	B: 5.8	C: 1.5	D: .	E: -3	F: -5	G: -1.2	H: -5	I: -14	J: -1

> COc1ccc(CNC(=O)CN(Cc2ccc(F)cc2)C(=O)c2csnn2)cc1
  A: 0.6	B: -3.8	C: -1.3	D: -1%	E: 9	F: 4	G: -6.6	H: -1	I: 41	J: -4

> Cc1ccc(Cn2ncc3c(NCCCN4CCOCC4)ncnc32)cc1
  A: 1.0	B: -0.1	C: .	D: 4%	E: .	F: .	G: .	H: -5	I: 0	J: -5

# Ordered by heavy-atom count (low to high): some entries from above.
# Letter code – A = Bfl-1 A1 inh; B = RanGTP-Imp inh; C = MLL AF4-AF9 inh; D = Vif TR-FRET; E = Ecoli rRNA inh; F = Ecoli rRNA inh OD600; G = Ecoli rRNA inh RFP; H = Beta cell apopt; I = Calb FLC; J = T cruzi repl
> Cc1ccc(Cn2ncc3c(NCCCN4CCOCC4)ncnc32)cc1
  A: 1.0	B: -0.1	C: .	D: 4%	E: .	F: .	G: .	H: -5	I: 0	J: -5

> COc1cccc(NC(=O)c2ccc(CN3CCc4ccccc4C3)cc2)c1
  A: -11	B: 5.8	C: 1.5	D: .	E: -3	F: -5	G: -1.2	H: -5	I: -14	J: -1

> COc1cccc(C2=NO[C@@H]3C(=O)N(c4ccc5c(c4)OCCO5)C(=O)[C@H]23)c1OC
  A: 0.0	B: -6.1	C: .	D: 9%	E: .	F: .	G: .	H: -10	I: 17	J: 3

# Given with tabs: part of the list above.
mol	Bfl-1 A1 inh	RanGTP-Imp inh	MLL AF4-AF9 inh	Vif TR-FRET	Ecoli rRNA inh	Ecoli rRNA inh OD600	Ecoli rRNA inh RFP	Beta cell apopt	Calb FLC	T cruzi repl
Cc1cc(C(=O)NNc2ccccc2F)no1	0.8	6.2	0.0	-2%	9	7	-0.2	3	-1	61*
O=C(NN1C(=O)/C(=C\c2cccnc2)SC1=S)C(c1ccccc1)c1ccccc1	0.1	0.9	4.0	3%	.	.	.	4	57	-1
CCN1C(=O)/C(=C/C=C2/Sc3ccc4ccccc4c3N2CCO)SC1=S	0.2	-13	-11	30%	12	0	23	9	-3	-4
CS(=O)(=O)Nc1cccc(C(=O)CC2(O)C(=O)Nc3ccccc32)c1 (centres undefined)	-0.1	0.2	.	-1%	.	.	.	-9	-63	-8
Cc1nnc(NC(=O)CSCc2c(C)noc2C)s1	-0.4	.	-1.3	-2%	3	3	-3.2	2	3	-4
